# Screens from PubChem BioAssay.
# Ba CapD inh – Bacillus anthracis CapD inhibitors, primary screen, biochemical, fluorescence intensity; purified CapD enzyme, fluorescence intensity read-out; hits give low values; some hits fall short of the stated cut; hit rate 0.23% among 140,000; z-score (concentration not given with the values);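 active means z-score under -4 in either of two replicates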;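 further: stock transfer was 100 nL into about 40 µL; score is relative to mean and spread of the plate; one replicate is shown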
# AID504770 – growth inhibition of E. coli YBA685, primary screen, V. cholerae RctB inhibitors | E. coli YBA685 rctB-dependent plasmid, OD600 growth, 3 h; hits give low values | z-score (concentration not given with the values) | hit rate 0.27% among 130,000;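 active means z-score under -2 on both plates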;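 further: wells of about 30 µL received 100 nL stock; score is relative to mean and SD of the test wells; the first replicate is given; strong numbers were not always called active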
# Active calls of the source: *; / = no result given; & = joins results of further samples; ! = not confirmed by another sample.
SMILES,Ba CapD inh,AID504770
CC(OC(=O)c1ccccn1)C(=O)N1CCc2ccccc21 (configuration not stated),/,0.45
CN(C)c1nc(-c2ccccc2)[n+](C)s1,-0.17&-0.53,-4*!
N#CC1=C(N)Oc2c(c(=O)oc3ccccc23)C1c1cccc(OCc2ccccc2)c1 (configuration not stated),0.82,/
Cc1cccc(Nc2cc(N3CCCCC3)c3noc4c3c2C(=O)c2ccccc2-4)c1,-0.61,/
Cc1nccc(-c2cccc(NC(=O)Nc3ccccc3)c2)n1,0.58,-0.8
Cc1nn(Cc2ccccc2)c(C)c1NC(=O)c1noc2c1CCc1ccccc1-2,0.76,-0.45
O=C(CSc1nc2c(c(=O)n1Cc1ccco1)C1(CCCC1)Cc1ccccc1-2)c1cccs1,0.075,0.3
CCOc1ccc(C2Nc3cccc4cccc(c34)N2)cc1OC,30,/
CCOc1ccc2nc(SCC(=O)Nc3ccccc3C(N)=O)sc2c1,0.55,/
COc1ccc2cc(CCNC(=O)COc3ccc4ccccc4c3)c(=O)[nH]c2c1,0.42,0.65
COC(=O)c1ccc(NCN2C(=O)S/C(=C/c3ccc(SC)cc3)C2=O)cc1,0.11,/
CSc1oc(-c2ccccc2)nc1S(=O)(=O)c1ccccc1,8.1,-0.05
COc1ccc(C2C3C(=O)N(C(C)C)C(=O)C3ON2c2ccc(Cl)cc2)cc1 (configuration not stated),-0.57,0.15
CCN(CC)c1ccc2cc(-c3nc(-c4ccc(Br)cc4)cs3)c(=Nc3ccccc3C)oc2c1,-0.69,/
CCCCSc1nnc(C)c(=O)[nH]1,0.07,0.15
COc1cc(/C=C/C(=O)O)ccc1OCc1c(C)noc1C,/,-1.5
CN(Cc1ccccc1)C1CCNCC1,/,-0.05
O=C(CSc1nc2ccccc2c(=O)n1NC(=O)Cc1ccccc1)NCc1ccccc1Cl,-0.4,/
CCCCCCCCCCCCC[N+](C)(C)Cc1ccccc1,0.26,0
O=C(Cn1c2ccccc2c(=O)c2cc([N+](=O)[O-])ccc21)Nc1ccc(OCc2ccccc2)cc1,0.62,/
O=C1N=C(N2CCN(c3ccccc3)CC2)S/C1=C\c1ccco1,-1.2,/
N#CCc1ccc(F)cc1,/,-0.55
COc1ccc(N=Cc2ccc[nH]2)cc1,-0.3,-0.1
CC(=O)Nc1ccc(C(=O)c2ccccc2)c(O)c1,-1,0.7
CC1(C)CC(=O)c2c(C#N)sc(C#N)c2C1,0.38,0.35
O=C(NC1CCCC1)c1ccc2c(Cl)c3c(nc2c1)CCC3,0.94,0.15
O=C(Cn1c(=O)c2cccn2c2ccccc21)N1CCCCC1,0.15,-0.4
O=C(NCCc1ccccc1)C1CCCN1S(=O)(=O)c1cccc2nsnc12 (configuration not stated),0.42,-0.05
O=S(=O)(NCc1ccc(-c2csnn2)cc1)c1ccc(F)c(Cl)c1,-0.52,-0.3
COc1cccc(C(=O)Nc2nnc(CCS(=O)(=O)c3ccc(Br)cc3)s2)c1,-0.35,/
O=c1c2ccccc2nc(CSc2nccn2Cc2ccccc2)n1-c1ccccc1Cl,-0.49,/
CC(C)(C)CC(=O)NCc1cccs1,-0.81,2.6
NCCc1ccc(Cl)cc1,/,-0.3
Cc1nn(C(=O)COc2ccc(Cl)cc2Cl)c(N)c1-c1ccccc1,0.02,0.1
COC(=O)CSc1nnc2n(-c3ccccc3)c(=O)c3c4c(sc3n12)COC(C)(C)C4,0.05,/
Cc1ccc(-c2c(C(=O)NCCc3cccc(C)c3)oc(=O)c3ccccc23)cc1,-0.025,0.3
O=C1CSC(c2ccc3c(c2)OCO3)N1 (configuration not stated),/,2.2
COC(=O)c1cc(NC(=O)CSc2nc3[nH]ncc3c(=O)n2-c2ccccc2)cc(C(=O)OC)c1,-0.29,/
Cn1c(SCC(N)=O)nc2ccccc21,-0.17,-1
O=C1COc2ccc(C(=O)C[n+]3cccc([O-])c3)cc2N1,/,-0.35
O=C(C1=CCN(S(=O)(=O)c2ccccc2)CC1)N1CCCCC1,0.005,0.25
C=CCNC(=O)CN1N=C(c2ccccc2)CCC1=O,0.61,0.05
Cc1ccc(-c2nc3nc(-c4ccc(Cl)cc4Cl)cn3nc2-c2ccc(C)cc2)cc1,1.1,/
CC1=C(C(=O)Nc2ccccn2)C(c2ccccn2)n2ncnc2N1 (configuration not stated),0.38,/
CCOC(=O)c1sc(N(Cc2ccccc2)C(=O)COC(=O)c2cccn2C)nc1C,/,-1.1
CCOC(=O)Cc1c(C)nc2c(-c3ccccc3)cnn2c1C,0.025,0.4
CCOC(=O)c1c(C)oc2ccc(N(C(C)=O)S(=O)(=O)c3ccc(C)cc3)cc12,-0.38,/
N#CC(c1ccc(C(=O)c2ccccc2)cc1)c1ccc(Cl)cc1Cl (configuration not stated),-0.04,/
COc1ccc(CNCc2ccncc2)cc1,0.015,-0.8
Cc1ccc(OS(=O)(=O)c2ccc(Cl)cc2)c([N+](=O)[O-])n1,-0.025,/
COc1cccc(NC(=O)N2CCC(O)(c3ccc4c(c3)OCO4)CC2)c1,/,1.4
O=C(O)/C=C/c1cccc(N=NN2CCCCC2)c1,/,-0.35
Cc1ccc(C)c(N2N=C(C(=O)N3CCN(c4ccccc4F)CC3)CCC2=O)c1,/,-0.65
CCOC(=O)N1CCN(CC(O)c2ccc3c(c2)CCN3C(C)=O)CC1 (configuration not stated),5.4,-0.6
NC(=S)COc1ccccc1,8.9,1.6
CCOc1cc2c(cc1OCC)-n1cccc1C(c1ccc(F)cc1)NC2 (configuration not stated),0.1,1.1
Cc1sc2ncnc(SCc3ccco3)c2c1C,-0.57,-1.9
CC(C)C(NC(=O)C1CCCCC1)C(=O)NC1CCCC(C)C1C (configuration not stated),-0.02,-0.7
CC1(c2ccccc2)CC(n2c3ccccc3c3ccccc32)=NC(SCC(=O)O)=N1 (configuration not stated),47,-0.55
CCN(CC)c1ccc(/C=C2\N=C(SC)SC2=O)cc1,-0.28,-0.15

# The list continues:
SMILES,Ba CapD inh,AID504770
O=C(Nc1ccc2nc3n(c(=O)c2c1)CCCCC3)c1ccncc1,0.06,0.45
CC(C)NC(=O)CCCn1c(=O)c2cccn2c2ccccc21,1.4,-0.65
CCOc1ccc(-n2c(SCC(=O)NCc3ccco3)nc3c(c2=O)SCC3)cc1,-0.91,-0.9
OCn1nnn(-c2ccccc2)c1=S,0.78,-0.45
COC(=O)c1ccc(N2C(=O)/C(=C\c3cccnc3)SC2=S)cc1,-0.46,0.55
COc1cc2c(C(=O)NCCCN3CCN(C)CC3)cn(CC(C)C)c(=O)c2cc1OC,0.24,0.4
Cc1sc2nc(-c3ccccc3)oc(=O)c2c1C,-0.28,/
CC(=O)Nc1ccc2c(c1)CN(Cc1ccc(Cl)cc1)CO2,-0.82,-1.2
O=C(O)c1cccc(NCC2SC(=S)NC2=O)c1 (configuration not stated),/,0.15
C1=CCC(CNCCCN2CCOCC2)CC1 (configuration not stated),/,-0.7
Cc1ccc(NC(=O)CSc2nc3ncnc(N)c3[nH]2)c(C)c1,2,-1
Cc1cccc(NC(=O)N2CCC(C)CC2)c1C,0.06,0.85

# Some of the entries so far, with each value named:
> CCOc1ccc(-n2c(SCC(=O)NCc3ccco3)nc3c(c2=O)SCC3)cc1
  Ba CapD inh: -0.91	AID504770: -0.9

> COc1cc2c(C(=O)NCCCN3CCN(C)CC3)cn(CC(C)C)c(=O)c2cc1OC
  Ba CapD inh: 0.24	AID504770: 0.4

# (next part)
SMILES,Ba CapD inh,AID504770
CC(C#N)OC(=O)CSc1nnc(-c2ccccc2F)n1-c1ccccc1 (configuration not stated),/,0.55
COC1CC(O[C@H]2[C@H](C)[C@@H](OC3OC(C)CC(N(C)C)C3O)[C@@H](C)C[C@]3(CO3)C(=O)[C@H](C)[C@@H](O)[C@@H](C)[C@@H](C)OC(=O)[C@@H]2C)OC(C)C1O (some centres not stated),-0.18,/
COCC(=O)Nc1cc(Sc2ccccc2)ccc1N=C(NC(C)=O)NC(C)=O,-0.26,-0.65
CCCCNC(=O)C1CCCN(S(C)(=O)=O)C1 (configuration not stated),0.025,-0.65
Cc1ccc(C(=O)N(C)S(=O)(=O)c2ccc(C)cc2)cc1,-1,-0.7
Nn1c(SCC(=O)NC2CCCC2)nnc1-c1ccc(Cl)cc1Cl,/,2
O=C(/C=C/c1cccc(C(F)(F)F)c1)OCC(=O)c1ccc(Cl)s1,0.38,0.35
CCn1c2ccccc2c2cc(CN3CCC(N4CCCCC4)CC3)ccc21,0.5,-0.35
CCOc1ccc(CCN2CN(CC)CNC2=S)cc1OCC,-0.015,-0.75
O=c1c2ccccc2nnn1-c1ccc(Br)cc1,0.15,0.15
O=S(=O)(Oc1cncc(Cl)c1)c1cc(Cl)cc(Cl)c1,0.41,/
CCOC(=O)Cn1c(=O)c(-c2ccccc2N)nc2ccccc21,0.12,-0.2

# Three successive records from above, quoted:
SMILES,Ba CapD inh,AID504770
Nn1c(SCC(=O)NC2CCCC2)nnc1-c1ccc(Cl)cc1Cl,/,2
O=C(/C=C/c1cccc(C(F)(F)F)c1)OCC(=O)c1ccc(Cl)s1,0.38,0.35
CCn1c2ccccc2c2cc(CN3CCC(N4CCCCC4)CC3)ccc21,0.5,-0.35

# Following part
SMILES,Ba CapD inh,AID504770
CCOc1ccccc1-n1c(=S)sc2c(=O)[nH]c(SCC(=O)N(CC)CC)nc21,-0.92,/
Cc1ccc(C(=O)NCC(C)(C)N2CCOCC2)s1,/,-0.8
Nc1nnc(SCC(=O)N2CCCCC2)n1CC(=O)N1CCCCC1,0.24,0.4
CC1(C)CC(=O)c2cc3c(N)c(C(=O)Nc4ccc(Br)cc4)sc3nc2C1,-0.23,/
CS(=O)(=O)/C(C#N)=C/Nc1ncccn1,0.13,-0.4
FC(F)(F)c1cc(-c2noc(C3CCc4ccccc4O3)n2)cc(C(F)(F)F)c1 (configuration not stated),0.41,-0.25
Cc1ccc(-n2c(C)c3c(C)nnc(C)c3c2C)cc1C,2.2,0.35
COc1cc2c(C#N)c(N3CCN(S(=O)(=O)c4ccc5c(c4)OCCO5)CC3)nc(N)c2c(N)n1,/,0.15
COc1ccc(C(N)c2nccc3cc(OC)c(OC)cc23)cc1OC (configuration not stated),/,0
CN1CCN(C(=O)c2ccc(-c3ccc(Br)cc3)o2)CC1,-0.095,-0.35
COc1ccc(C(=O)N2C3C=CC(C3)C2(C(F)(F)F)C(F)(F)F)cc1 (configuration not stated),-0.26,-0.15
COc1ccc(COC(=O)C2=C(C)NC(=O)NC2c2ccc(Cl)cc2Cl)cc1 (configuration not stated),-0.93,/

# The closing 3 entries of the section before open the next one:
SMILES,Ba CapD inh,AID504770
CN1CCN(C(=O)c2ccc(-c3ccc(Br)cc3)o2)CC1,-0.095,-0.35
COc1ccc(C(=O)N2C3C=CC(C3)C2(C(F)(F)F)C(F)(F)F)cc1 (configuration not stated),-0.26,-0.15
COc1ccc(COC(=O)C2=C(C)NC(=O)NC2c2ccc(Cl)cc2Cl)cc1 (configuration not stated),-0.93,/
Cc1nc(C)c(C(=O)Nc2nnc(C3CCCO3)s2)s1 (configuration not stated),-1.4,-1.4
Cc1ccc(NNC(=S)NC(=O)C2CC2)c(C)c1,/,0.65
Cn1/c(=N/N=C2\CCc3ccccc32)sc2ccccc21,/,-0.2
CCCC(=O)N1CCCC(c2nc(-c3ccc(OC)cc3)no2)C1 (configuration not stated),/,-0.55
CC1CCCCC1NC(=O)CSc1nnc(-c2cccs2)n1-c1ccccc1 (configuration not stated),/,0.15
CC(=O)OC(C)C1CCC2C3CC[C@H]4CC(=O)CCC4(C)C3CCC12C (some centres not stated),0.16,0.05
CC(/C=C/c1ccccc1)=N\Nc1nc2c(c(=O)[nH]c(=O)n2C)n1CC(O)COC(C)C (configuration not stated),/,0.05
COc1ccccc1C(=O)COC(=O)COc1ccc(C#N)cc1,/,-0.75
CCCCCCCCCOC(=O)c1ccc(-c2ccc(-c3ccc(C(=O)OCCCCCCCCC)cc3)cc2)cc1,0.23,/
Cc1ncc2c(N)ncnc2n1,0.5,-0.2
COc1ccc(S(=O)(=O)N(C)C)cc1,0.16,-0.05
COc1ccc(-c2nnc(OC)c3ccccc23)cc1,-0.13,/

# Part of the list above, with two lines to a compound.
# The line under a structure holds: Ba CapD inh, AID504770
O=C(NCCc1ccccc1)C1CCCN1S(=O)(=O)c1cccc2nsnc12 (configuration not stated)
  0.42, -0.05
O=S(=O)(NCc1ccc(-c2csnn2)cc1)c1ccc(F)c(Cl)c1
  -0.52, -0.3
COc1cccc(C(=O)Nc2nnc(CCS(=O)(=O)c3ccc(Br)cc3)s2)c1
  -0.35, /
O=c1c2ccccc2nc(CSc2nccn2Cc2ccccc2)n1-c1ccccc1Cl
  -0.49, /
CC(C)(C)CC(=O)NCc1cccs1
  -0.81, 2.6

# Continuation:
SMILES,Ba CapD inh,AID504770
CCNc1nc(SCc2ccc(Cl)cc2)nc2sc3c(c12)CCN(C)C3,21,0.95
COC(=O)C1=C(N)Oc2cc(C)oc(=O)c2C1c1cccnc1 (configuration not stated),-0.055,-0.85
CNc1oc(Cc2ccccc2)nc1S(=O)(=O)c1ccccc1,-0.02,/
O=C1CN(C(=O)CSCc2cc(=O)n3c4c(sc3n2)CCCC4)c2ccccc2N1,/,0.15
COCCN1C(=O)N(c2cccc(C)c2)C(=O)C1CC(=O)Nc1cccc(F)c1 (configuration not stated),-0.21,0.75
O=C(c1cc2ccccc2o1)N(CC1CCCO1)c1nc2ccccc2s1 (configuration not stated),/,-1.4
O=c1oc2ccccc2n1Cc1cc2c(cc1Br)OCO2,-0.02,-0.35
CC(C)C1Cc2c(sc3nc(SCC(=O)Nc4ccccc4)nc(N)c23)CO1 (configuration not stated),18,0.5
CN1/C(=C\C(=O)CSc2ncn[nH]2)C(C)(C)c2ccccc21,/,-1.3
Cc1nc(=O)c(-c2ccccc2)c(C)n1-c1ccccc1O,0.095,-0.7
Cc1ccc(-n2c(=O)[nH]cc(C(=O)N3CCc4ccccc43)c2=O)cc1,-0.35,-0.25
C(=C/c1ccccc1)/CN1CCN(Cn2nnc3ccccc32)CC1,0.56,0.2
CCOC(=O)N1CCC(NS(=O)(=O)c2ccc3oc(=O)c4ncn(CC)c4c3c2)CC1,0.52,1.2
